Calb FLC: C. albicans growth inhibition with fluconazole, primary screen, CaCi-2 strain, Alamar Blue fluorescence; C. albicans CaCi-2 (fluconazole-resistant clinical isolate) + fluconazole, 48 h; growth inhibition, % (no concentration beside the values); AID 1979, 2009; 300,000 tested, 0.57% active;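 active means most replicates above 75%; inconclusive means exactly half above 75%; inactive means most below 75%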;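 further: all wells also contain fluconazole at 8 µg/ml as a sub-toxic cotreatment; 0% = median of DMSO wells and 100% = median of geldanamycin control wells; wells of about 8 µL received 7.5 nL stock; the first replicate is given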
Beta apoptosis: inhibitors of cytokine-induced beta cell apoptosis, primary screen, luminescence; protection from apoptosis, % (no concentration beside the values); 300,000 tested, 0.8% active; INS-1E cytokine-induced death, ATP luminescence, 48 h; percent of positive-control rescue, neutral wells zero;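 active means all replicates at 75% or more, or half of them and the mean; inconclusive means half reach 75% but not the mean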;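 further: 0% = cytokine-treated negative control wells and 100% = positive control rescue; higher means more ATP so stronger rescue from cytokine killing; wells of about 40 µL received 100 nL stock; the first replicate is given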
Vif TR-FRET: inhibitors of Vif binding to APOBEC3G peptide, primary screen, biochemical, TR-FRET, GST-Vif 1-94, biotin-A3G peptide, dose response retest (AID 1117319). inhibition, %, or IC50 in µM where a hit was titrated. 260,000 tested, 0.57% active. Virion infectivity factor (Human immunodeficiency virus type 1 group M subtype B (isolate …. TR-FRET GST-Vif / biotin-A3G peptide binding; higher % means a stronger effect; test concentration not given here; strong numbers were not always called active;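 active means above the screen mean plus three standard deviations and confirmed in dose response; inconclusive means results disagree or hit not tested in dose response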;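 further: Vif residues 1-94 fused to GST binding biotinylated APOBEC3G peptide 110-148; 0% = full assay without inhibitor and 100% = GST in place of GST-Vif; retest series ran down from 100 µM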
rRNA inh HTS: reduced GFP signal of wild-type E. coli, primary screen, bacterial rRNA inhibitor project, GFP/RFP fluorescence, OD600, single point. E. coli WT GFP vs humanized-ribosome RFP mutants, 24 h; stronger effect = lower value; DMSO median 0, no signal -100. GFP signal change (wild-type ribosome), % (concentration not given with the values). 350,000 tested, 1.6% active;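 active means significant combined selectivity score with lowered wild-type GFP, culture density cut under 30%, mutant RFP and density less affected; inactive means any of these conditions unmet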; further: one replicate is shown; some compounds called inactive have numbers as strong as hits
RanGTP-Impb inh: inhibitors of RanGTP-importin-beta interaction, primary screen, biochemical, FRET, CFP-Ran, YFP-importin-beta, homogeneous; Ran GTPase (GTP-bound) - importin-beta complex; cell-free CFP-Ran/YFP-importin-beta FRET ratio; inhibition, % (test concentration not listed); 300,000 tested, 1.1% active; AID 2216, 2009;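 active means most replicates above 15%; inconclusive means exactly half above 15%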;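 further: 0% = DMSO wells and 100% = Ran loaded with GDP instead of GTP; wells of about 40 µL received 100 nL stock; the first replicate is given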
AF4-AF9 inh: inhibitors of AF4 peptide binding to AF9, primary screen, biochemical, AlphaScreen, biotin-AF4 peptide, FLAG-AF9, single point | 350,000 tested, 0.47% active | AID 651704, 2012 | Protein AF-9 (Homo sapiens), P42568 | inhibition, % at 10 µM;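 active means every replicate reaching a set inhibition limit, whatever the replicate mean, cut at about 25% in these data; inconclusive means mean inhibition reaches that limit but some replicates miss it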;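 further: 0% = plate neutral control median and 100% = total signal loss; the record names both 10 and 1 µM as test concentration; the first replicate is given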
Target sequence (P42568 whole entry, looked up): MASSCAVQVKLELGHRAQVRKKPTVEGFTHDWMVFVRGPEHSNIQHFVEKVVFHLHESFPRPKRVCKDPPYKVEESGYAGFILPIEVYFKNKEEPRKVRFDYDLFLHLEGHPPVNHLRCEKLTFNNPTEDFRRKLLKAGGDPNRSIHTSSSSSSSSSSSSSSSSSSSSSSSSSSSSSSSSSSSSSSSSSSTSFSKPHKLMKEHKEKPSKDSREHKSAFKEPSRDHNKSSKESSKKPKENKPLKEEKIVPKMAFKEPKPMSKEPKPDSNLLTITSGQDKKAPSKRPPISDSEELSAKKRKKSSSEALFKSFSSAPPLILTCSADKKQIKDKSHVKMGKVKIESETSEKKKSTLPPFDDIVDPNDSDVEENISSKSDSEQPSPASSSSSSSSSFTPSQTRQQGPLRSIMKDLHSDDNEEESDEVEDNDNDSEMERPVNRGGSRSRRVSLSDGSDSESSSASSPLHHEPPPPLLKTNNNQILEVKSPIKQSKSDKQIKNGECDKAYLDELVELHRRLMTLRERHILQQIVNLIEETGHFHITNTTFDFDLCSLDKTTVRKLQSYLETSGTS
Bfl-1 A1 inh: caspase 3/7 activation in MEF A1-2A-BIM cells, primary screen, A1 inhibitor project, cell-based, luminescence, HTS; Caspase-Glo 3/7 luminescence, 3 h; percent of clofoctol response, vehicle zero; caspase activation, % (test concentration not listed); 330,000 tested, 0.066% active; AID 2462, 2010;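 active means over half of replicate activation scores above 10%, or exactly half above 10 with the replicate mean above 10; inconclusive means replicate mean below 10 yet half the replicates above 10; inactive means over half of replicates below 10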;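 further: wells of about 30 µL received 50 nL stock; many hits fall short of the cut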
T cruzi repl: inhibitors of intracellular T. cruzi growth, primary screen, luminescence, NIH3T3 host cells. AID 1885, 2009. inhibition, % (concentration not given with the values). T. cruzi beta-gal in NIH3T3, 90 h. 300,000 tested, 1.4% active;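 active means mean inhibition across valid replicates above about 55%, limit read from the data; inconclusive means mean below that limit but half or more replicates reach it; inactive means mean below it, under half of replicates reach it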;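 further: signal also drops with host cell toxicity which is not excluded here; 0% = plate median of DMSO wells and 100% = zero luminescence signal; higher percent means less beta-gal luminescence so fewer parasites; stock transfer was 50 nL into about 50 µL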
rRNA inh HTS OD600: also measured in rRNA inh HTS; calls as there; OD600 change, %; measured here: OD600 growth;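 optical density of the mix in the first replicate; 0 = DMSO median and -100 = no signal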
rRNA inh HTS RFP: also measured in rRNA inh HTS; calls as there; RFP signal change, %; measured here: RFP humanized mutant strains;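 first replicate; 0 = DMSO median and -100 = no signal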
* = called active by the depositor; ? = inconclusive; · = no result given; & = joins results of further samples. Some of the compounds tested. The share of hits here may be higher or lower than overall.

SMILES | Calb FLC | Beta apoptosis | Vif TR-FRET | rRNA inh HTS | rRNA inh HTS OD600 | rRNA inh HTS RFP | RanGTP-Impb inh | AF4-AF9 inh | Bfl-1 A1 inh | T cruzi repl
Cc1cccc(OCCSc2cc(C)nc(N)n2)c1 | 0 | -7 | -2% | · | · | · | 2.2 | · | 0.3 | -9
NC(=O)[C@H]1CC2(CC(c3cccc(NC(=O)[C@H]4CCC(=O)N4)c3)=NO2)CN1C(=O)c1cc([N+](=O)[O-])cc([N+](=O)[O-])c1 (stereo partly specified) | 0 | -4 | 7% | 5 | -4 | 3.5 | -1.6 | -0.3 | -0.1 | -3
CC1(c2nnc(-c3ccncc3)o2)CC(c2cccc(Cl)c2)=NO1 (stereo unspecified) | -5 | 2 | · | 5 | 6 | 6.8 | -2.9 | -16 | 1.4 | -2
COc1ccc(/C(C)=N/OC/C(O)=C(\C#N)c2nc3ccccc3[nH]2)cc1 | -4 | -2 | 22% | 4 | 6 | 6.4 | ? | -1.5 | 0.0 | 0
CS(=O)(=O)Nc1nnc(SCC(=O)N(c2ccccc2)c2ccccc2)s1 | -4 | -3 | · | · | · | · | 4.7 | -0.7 | 0.6 | -8
CCCC(c1nnnn1Cc1ccc(F)cc1)N1CCN(C2CCCCC2)CC1 (stereo unspecified) | -17 | -4 | 3%&1% | · | · | · | 6.1 | · | 0.1 | 21
CC(C)CCNC(=O)COc1ccc(N(C)S(=O)(=O)c2ccc(F)cc2)cc1 | 6 | -3 | -8% | -14 | -11 | -0.8 | -1.8 | -1.6 | -0.1 | 10
Cc1nc2ccccn2c1C(=O)NNC(=O)Nc1cccc(C(F)(F)F)c1 | 9 | 5 | · | -2 | 6 | 2.1 | 4.9 | -6.8 | -0.1 | 6
COc1cc(NC(=O)c2cccc(NC3=NC4CS(=O)(=O)CC4S3)c2)cc(OC)c1OC (stereo unspecified) | -4 | -1 | · | 2 | 6 | -4.8 | -4.4 | 4.0 | -0.3 | -5
CCOc1ccc(N(C)S(=O)(=O)c2ccc3[nH]cc(C(=O)NCC(OC)OC)c(=O)c3c2)cc1 | -8 | 3 | -2% | 0 | 4 | -1.9 | -1.2 | 0.1 | 0.4 | -3
COC(=O)c1scc(C)c1-n1ccc(C(=O)C(=O)N(C)C)c1 | 0 | 3 | 2% | 12 | 16 | 9.2 | -1.9 | -1.5 | 0.1 | 0
COc1ccc(CCNC(=O)c2ccc(-c3cccc([N+](=O)[O-])c3)o2)cc1OC | -5 | 1 | -6% | -25 | -20 | -3.1 | ? | -2.1 | 1.8 | 30
O=C(CCN1C(=O)c2ccccc2C1=O)Nc1ccc(F)cc1F | -5 | -11 | 3% | · | · | · | -1.0 | · | 0.0 | 0
CCOC(=O)c1c(S(=O)(=O)NCc2cccs2)c(C)n(C)c1C | 7 | -6 | · | 2 | -5 | -2.1 | 0.8 | 2.4 | 0.1 | 6
COc1cccc(NC(=O)CSc2nc3ccccc3c(=O)n2CCCC(=O)NCC2CCCO2)c1 (stereo unspecified) | -4 | -11 | · | -1 | 2 | 1.2 | 5.0 | -15 | -1.1 | 4
C/C(CC(=O)N1CCN(C=O)CC1)=N\NC(=O)c1ccc(Cl)cc1 | 3 | -5 | · | 10 | 4 | 1.9 | 3.9 | -21 | 0.1 | 11
C/C=C(/C)C(=O)Nc1cccc(C2=NOC3(C2)C[C@H](C(N)=O)N(C(=O)Cc2ccc([N+](=O)[O-])cc2)C3)c1 (stereo partly specified) | 7 | -3 | 1% | -1 | 8 | -1.7 | -2.7 | -1.1 | 0.2 | 14
Cn1ncc(Br)c1C(=O)N1CCN(C(=O)c2ccco2)CC1 | -2 | 0 | 2% | · | · | · | -2.8 | · | 0.6 | -12
O=C(OCCCc1cc2ccccc2c(=O)o1)c1ccc(C(F)(F)F)cc1 | · | -6 | · | -25 | -24 | -9.8 | · | -4.7 | 0.1 | ·
Cc1ccc(OCC(=O)Nc2ccc3c(c2)CCC3)c([N+](=O)[O-])n1 | -8 | -2 | 9% | -10 | -11 | -6.4 | -3.8 | 0.1 | -0.1 | -5
O=C(O)CSCC(=O)N(c1ccccc1)c1ccccc1 | 14 | -9 | · | 11 | 11 | 1.2 | 1.7 | -1.7 | 1.5 | -7
O=C(CN1C(=O)COc2ccccc21)N1CCN(C2CCCCC2)CC1 | 0 | -4 | · | 8 | 15 | 2.1 | 2.5 | -0.7 | 0.7 | -7
O=[N+]([O-])c1ccc(-c2cn(-c3ccccc3F)c(=S)[nH]2)cc1 | 5 | 8 | 5% | 21 | 17 | 0.9 | ? | -2.4 | 0.5 | -9
CCn1ccnc1CN1CCC(n2nccc2NC(=O)CCc2ccccc2)CC1 | -6 | 2 | · | 9 | 15 | 1.7 | 4.1 | 0.6 | 1.2 | -1
COc1ccc(-c2csc(NC(=O)CN3C(=O)C4CCCCC4C3=O)n2)c(OC)c1 (stereo unspecified) | -9 | -6 | 6% | -18 | -28 | 2.1 | 5.0 | 3.5 | 0.5 | 1
Cc1ccc(NC(=O)CSc2nnc(-c3cc(C)[nH]n3)n2N)c(C)c1 | -4 | -2 | · | 5 | 3 | 0.0 | 4.7 | -0.3 | 0.3 | -4
Cc1ccc(S(=O)(=O)N/N=C\c2cc3c(cc2[N+](=O)[O-])OCO3)cc1 | -4 | -5 | 14% | 9 | 3 | 0.9 | 2.4 | -13 | -0.7 | 4
CC(=O)NC1=NC(=O)/C(=C/N2CCOCC2)S1 | -3 | 2 | -8% | · | · | · | -0.8 | · | 0.1 | -11
COc1ccc(C2N(c3ccc4c(c3)OCCO4)C(=O)C2(F)F)cc1OC (stereo unspecified) | -4 | 3 | ? | -18 | -16 | -6.8 | -1.1 | 15 | -0.1 | -4
O=C(CSc1ccc2nnc(-c3ccccc3)n2n1)N1CCCc2ccccc21 | 3 | -1 | · | · | · | · | -0.8 | · | 1.8 | 19
CCOC(=O)[C@H]1[C@H]2COc3ccc(OC)cc3[C@@H]2N2C(=O)c3cc(F)c(F)cc3NC(=O)[C@@]12C | · | 4 | · | 0 | -10 | 6.3 | · | 6.1 | 0.7 | ·
CCSc1nc2ccccc2n1CC(N)=O | ? | 4 | 23% | · | · | · | -0.1 | · | 1.0 | -3
Cc1occc1C(=O)NCc1ccccc1 | 0 | -11 | -5% | · | · | · | -0.1 | · | 1.0 | -6
CN1CCN(C(=O)c2cnn3c2NC(c2ccccc2)CC3C(F)(F)F)CC1 (stereo unspecified) | -8 | -9 | · | 12 | 12 | 4.6 | 4.2 | -0.5 | -0.4 | -9
CN1CCC(N(C)CC(O)c2ccccc2)CC1 (stereo unspecified) | -9 | 0 | 3% | 27 | 23 | 1.9 | 0.6 | 0.1 | 0.9 | 17
COc1cccc(CN2CC(C(=O)NC3CCC(O)CC3)CCC2=O)c1 (stereo unspecified) | -2 | -8 | · | 10 | 11 | 1.3 | -4.2 | -0.6 | 0.6 | -2
CC(=O)c1cccc(NC(=O)N2CCCC2C(=O)NCc2ccc(C)cc2)c1 (stereo unspecified) | -6 | 0 | 3% | · | · | · | 3.0 | · | 0.2 | 3
COc1ccccc1N1CCN(C(=O)c2ccco2)CC1 | -3 | -5 | · | -2 | 0 | -2.7 | -0.1 | -0.6 | -0.1 | -12
Cc1cccc(C(=O)NC2CCN(S(=O)(=O)c3ccc(F)cc3)CC2)c1 | 40 | -5 | · | 4 | 19 | 1.4 | 0.2 | 1.4 | 0.3 | -7
O=C(NC(=S)Nc1cccc([N+](=O)[O-])c1)C1CCCCC1 | · | 1 | 6% | 8 | 9 | -2.9 | · | -2.5 | 0.7 | 27
Cn1c(=O)c2c(nc(CN3CCc4ccccc4C3)n2CC(=O)c2ccccc2)n(C)c1=O | -6 | 3 | · | -8 | -11 | -2.0 | ? | 4.1 | 0.3 | 25
O=C(Nc1cccc(Cl)c1)c1cc(-c2ccco2)on1 | -26 | -8 | · | 3 | 0 | 2.9 | 1.4 | -2.0 | 1.4 | -18
Cc1cccn2c(=O)c(C(=O)NCCCN3CC(C)CC(C)C3)c(O)nc12 (stereo unspecified) | 3 | 2 | -2% | 16 | 6 | -1.6 | 4.2 | -24 | 0.8 | -6
CC(C)CC(NC(=O)C1CCC(C)CC1)C(=O)Nc1cccnc1 (stereo unspecified) | -6 | 2 | -4% | · | · | · | 4.2 | · | -0.9 | -8
O=C1CCc2cc(S(=O)(=O)Nc3ccc(C(F)(F)F)cc3)cc3c2N1CC3 | -5 | -5 | 3% | -12 | -17 | -5.8 | -3.3 | -2.9 | 1.7 | 6
CC(=O)Nc1ccc(S(=O)(=O)N(C)Cc2cnn(C)c2)cc1 | -6 | -6 | 6% | 14 | 15 | 0.7 | 2.1 | -0.6 | -0.4 | -11
COc1ccc(C(=O)N2CCCC(Nc3ccc(C)c(C)c3)C2)cc1 (stereo unspecified) | 5 | -7 | 6% | -8 | 0 | 2.7 | 4.5 | 0.0 | 0.6 | 7
CC(=O)Nc1nc2c(c3c1c(=O)oc1ccccc13)CCCCC2 | 9 | -5 | -2% | · | · | · | 3.3 | · | -1.2 | 0
O=C(NC1CCCCC1)N1CCCC(c2nc3ccccc3[nH]2)C1 (stereo unspecified) | 28 | 3 | 16% | · | · | · | 0.4 | · | -0.5 | 1
COc1cc2[nH]ccc(=O)c2cc1OC | 7 | -9 | 5% | 9 | 8 | 9.6 | 2.3 | 3.7 | 0.7 | -1
COc1cccc(CN2CCN(Cc3ccc(O)cc3)CC2CCO)c1 (stereo unspecified) | -9 | -8 | · | 13 | 9 | -1.8 | 1.2 | 0.0 | 2.0 | -13
C/C(N)=C(/C#N)C(=O)CSc1n[nH]c(-c2cccs2)n1 | -19 | -6 | -1% | 14 | 11 | 4.7 | -3.1 | -2.0 | -0.8 | -4

Compound profiles, as listed above.
Results for `COc1cccc(CN2CCN(Cc3ccc(O)cc3)CC2CCO)c1` (stereo unspecified) = Calb FLC: -9; Beta apoptosis: -8; Vif TR-FRET: ·; rRNA inh HTS: 13; rRNA inh HTS OD600: 9; rRNA inh HTS RFP: -1.8; RanGTP-Impb inh: 1.2; AF4-AF9 inh: 0.0; Bfl-1 A1 inh: 2.0; T cruzi repl: -13
Results for `CC(=O)Nc1nc2c(c3c1c(=O)oc1ccccc13)CCCCC2` = Calb FLC: 9; Beta apoptosis: -5; Vif TR-FRET: -2%; rRNA inh HTS: ·; rRNA inh HTS OD600: ·; rRNA inh HTS RFP: ·; RanGTP-Impb inh: 3.3; AF4-AF9 inh: ·; Bfl-1 A1 inh: -1.2; T cruzi repl: 0

High-throughput results from PubChem BioAssay.
